PINK1 expr mod – changes PINK1 expression; 0.2% of 410,000 active; Potency, µM (series often up to 76.6 µM), without a hit: at the top dose activation (PINK1 increase), usual class: activators; PINK1 immunofluorescence, high-content cytometry, 24 h; active = well fitted activation curve with a large enough effect; inconclusive = small, poorly fitted or top-dose-only effect; inactive = flat fitted curve, though single readings scatter; cell line not stated here;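 also: potency is read from the fitted curve at half-maximal effect; % of control where 0% means no effect; nearly all actives have a fitted effect of over 65% in size; a mitochondrial uncoupler was the plate control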
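Cells are seeded, rested 12 hours, then given compound at five concentrations or DMSO for 24 hours. After fixation, blocking and antibody staining, PINK1 amount and mitochondrial localization are scored; CCCP serves as control.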
gsp antagonist – gsp mutant antagonism | gsp-mutant cells, cAMP HTRF, 30 min; control for the full effect not named in the record | Potency, µM (highest dose often 76.9 µM), for inactives: top-dose activity change, negative = inhibition, actives largely listed as inhibitors | 0.4% of 340,000 active; active = falling curve of any shape with a large fitted effect; inconclusive = falling curve, mostly with a smaller effect; inactive = flat or rising curve; cell line not stated here;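 also: intracellular cAMP measured with PDE inhibitor Ro 20-1724 present during compound exposure; potency is read from the fitted curve at half-maximal effect; % is scaled to controls: 0 for no effect and ±100 for the full control effect; nearly all actives have a fitted effect of over 65% in size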
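HTRF cAMP measurement after 30 min RT detection following 30 min, 37C compound treatment alongside […] (added as 300 uM solution) in G418-selected cells seeded at 2000/well and grown 16–24 h.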
gsp agonist – gsp mutant agonism. gsp mutant cells, cAMP HTRF, 30 min; control for the full effect not named in the record. Potency, µM (top dose mostly 76.9 µM), inactives show at the highest dose activation (cAMP increase), usual class: activators. 0.13% of 340,000 active. AID 624287; active = well fitted activation curve with a large enough effect; inconclusive = small, poorly fitted or top-dose-only effect, or another doubt; inactive = no such curve, though single readings can be large or run the other way; cell line not stated here;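 also: phosphodiesterase inhibitor Ro 20-1724 added with compounds to block cAMP breakdown; potency is read from the fitted curve at half-maximal effect; nearly all actives have a fitted effect of over 60% in size; about a fifth of the inactives were tested at one dose only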
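Cells in DMEM/10% FBS with G418 were pretreated with compounds in DMSO plus […] (300 uM stock) for 30 min at 37C. cAMP was measured by HTRF (cAMP-d2 plus anti-cAMP antibody-K) after 30 min at room temperature.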
Sfp inh – blocks B. subtilis Sfp PPTase activity; Q9F4F7; Biochemical Sfp PPTase activity, qHTS; AID 1490; Potency, µM, for inactives: max response, negative = inhibition, hits mostly inhibitors; 3.5% of 310,000 active; active = well fitted inhibition curve with a large enough effect; inconclusive = small, poorly fitted or top-dose-only effect, or another doubt; inactive = no such curve, though single readings can be large or run the other way;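 also: the enzyme is Sfp with the accession as filed and its product quenches rhodamine fluorescence; potency is read from the fitted curve at half-maximal effect; 0% = enzyme reaction without inhibitor and -100% = no enzyme wells; top concentration of the series not given in the record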
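Sfp 15 nM + cpd, 15 min RT; start w/ rhodamine-CoA 5 uM, BHQ-2-YbbR 12.5 uM (final); 50 mM Hepes pH 7.6, 10 mM MgCl2, 0.01% NP-40, 0.01% BSA; read 525/598 nm at 0 and 30 min.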
ClpP mod – qHTS Assay for Activators of ClpP | AID 651965, 2013 | 1.9% of 340,000 active | purified B. subtilis ClpP, FRET peptide cleavage, 20 min | Potency, µM (doses to about 57.5 µM), for the others: at the highest dose activity change, negative = active | ATP-dependent Clp protease proteolytic subunit (Bacillus subtilis (strain 168)), P80244; active = well fitted falling curve with a large enough effect; inconclusive = small, poorly fitted or top-dose-only effect; inactive = no such curve, though single readings can be large or run the other way; also: potency is read from the fitted curve at half-maximal effect; the source files actives as falling curves though it sought activators and does not explain the sign; nearly all actives have a fitted effect of over 65% in size; many hits overshoot -100%
Target sequence (P80244 whole entry, looked up): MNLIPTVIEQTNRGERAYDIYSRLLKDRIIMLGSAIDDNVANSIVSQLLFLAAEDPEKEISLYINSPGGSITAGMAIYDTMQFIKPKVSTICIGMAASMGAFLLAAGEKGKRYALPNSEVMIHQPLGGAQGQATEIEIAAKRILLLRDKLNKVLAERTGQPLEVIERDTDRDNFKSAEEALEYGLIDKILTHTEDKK
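Purified B. subtilis ClpP, 10 microg/mL final in Tris/HCl pH8 with KCl, BSA, glycerol and Tween-20, cleaved an Abz/nitrotyrosine-quenched decapeptide. Fluorescence (ex 320, em 430) was read at 0 and 20 min at room temperature. Delta was normalized to 5.8 microM ADEP and DMSO/no-enzyme controls.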
D2 agonist – activates the human D2 dopamine receptor | DiscoveRx PathHunter D2 beta-arrestin, luminescence, 90 min; 100% = 57 uM dopamine signal | activation, % (concentration not given with the values) | 0.084% of 360,000 active | AID 624465; in the data active = activation above about 40%; inconclusive = about 15% to 40%; inactive = below about 15%; also: compound concentration not given in the record; the text of the record calls up to 30% inactive
Target sequence (P14416 whole entry, looked up): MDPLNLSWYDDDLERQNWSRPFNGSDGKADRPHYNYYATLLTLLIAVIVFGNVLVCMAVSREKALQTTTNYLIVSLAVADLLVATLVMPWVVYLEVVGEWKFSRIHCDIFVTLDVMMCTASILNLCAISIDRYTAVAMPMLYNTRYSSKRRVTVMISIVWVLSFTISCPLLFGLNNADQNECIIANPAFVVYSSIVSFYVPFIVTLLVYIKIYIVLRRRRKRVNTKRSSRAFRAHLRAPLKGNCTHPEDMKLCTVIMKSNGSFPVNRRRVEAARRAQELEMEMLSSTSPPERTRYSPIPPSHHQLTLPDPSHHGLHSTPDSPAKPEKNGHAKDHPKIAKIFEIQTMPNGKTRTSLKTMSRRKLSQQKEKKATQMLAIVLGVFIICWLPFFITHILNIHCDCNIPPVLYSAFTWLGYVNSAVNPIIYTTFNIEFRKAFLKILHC
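DiscoveRx PathHunter D2 beta-arrestin cells (2,100/well) attached overnight, then compound-stimulated 90 min at 37 C in HBSS/10 mM HEPES/0.1% Tween-20 buffer; beta-galactosidase complementation read by luminescence after 1 h at ambient temperature. Dopamine 57 uM final (EC100) as control.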
Menin-MLL FL inh – displaces fluorescein MLL peptide from human menin; FP activity change, % at 61.4 µM; 290,000 tested, under 10 active; Fluorescence polarization, fluorescein-MLL peptide displacement from menin; inconclusive = falling polarisation curve, or a change in total fluorescence; inactive = total fluorescence flat and polarisation flat or rising; no compound was filed as active; the % refers to the polarisation; negative = inhibition;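 also: % of control where 0% means no effect; inhibitors lower the polarisation; unlabelled MLL peptide was the positive control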
* marks the source's active call; other numbers are inactive results; ? = inconclusive; · = no result given; & = joins results of further samples; [ ] = dose if it differs, or a comment.

structure | Sfp inh | gsp antagonist | gsp agonist | Menin-MLL FL inh | ClpP mod | PINK1 expr mod | D2 agonist
Cc1ccc(O)c(C(=O)c2cnc(/N=C(\N)N(C)C)nc2)c1 | 10% | 7% | -7%[15.4 µM] | 6.7 | · | -0.5% | -2.8
Cc1ccc(C)c(-n2[nH]c3c4c(ccc3c2=O)C(=O)c2ccccc2C4=O)c1 | -8% | 3% | 11%[15.4 µM] | -2.4 | -0.5% | -1.6% | 2.3
COc1ccc2nc(Nc3nc(-c4ccncc4)cs3)sc2c1 | 5% | -14% | 14% | 2.8 | · | -0.5% | -1.2
CSc1ncccc1C(=O)N1CCN(S(=O)(=O)c2ccc3ccccc3c2)CC1 | · | -2% | ? | · | -0.6% | 0.4% | 0.5
Cc1cccc(NC(=O)CSc2nnc(-c3ccccc3C)o2)c1 | -2% | -11% | 13% | 2.5 | 0.9% | -0.5%[38.3 µM] | 0.1
COC(=O)[C@@]1(Cc2ccc(OC)cc2)[C@H]2c3cc(C(=O)N4CCCC4)n(CCSCCO)c3C[C@H]2CN1C(=O)c1ccccc1 | -13%&-8% | -9% | -3% | -1.5&-4.4 | 5.7% | -0.9% | -6.9
Cn1c(O)c(N=NC(=O)Cn2c(C(F)(F)F)nc3ccccc32)c2ccccc21 | 5% | -15% | -59%[inhibitor] | -1.3 | 1.9% | 3.9% | -3.7
CCCCSc1nnc(-c2ccccc2NC(C)=O)c(=O)[nH]1 | 17% | · | 12%[15.4 µM] | 16 | · | -0.2% | -4.8
CCc1ccccc1NC(=O)CN1CCN(CC(=O)NCc2ccc(Cl)cc2)CC1 | · | -20% | 10% | · | 1.9% | 2.4% | 4.2
CCC(=O)Nc1cccc(C(=O)N(Cc2ccccc2)Cc2ccccc2)c1 | 6% | -21% | -7% | -0.8 | -1.2% | 0.5% | 0.1
Cc1cc(CN(C)Cc2c(C(=O)N3CCCCCCC3)nc3ccc(Cl)cn23)n[nH]1 | 12% | -3% | 26% | 0.1 | · | 2.6% | -5.5
COc1ccc(S(=O)(=O)NCC(=O)N(CC(=O)NCc2ccco2)C2CCCC2)cc1 | 13% | -21% | 1%[15.4 µM] | -2.1 | 1.6% | 2.6% | -4.9

In another format: entries from further up
> CCC(=O)Nc1cccc(C(=O)N(Cc2ccccc2)Cc2ccccc2)c1
  Sfp inh = 6%	gsp antagonist = -21%	gsp agonist = -7%	Menin-MLL FL inh = -0.8	ClpP mod = -1.2%	PINK1 expr mod = 0.5%	D2 agonist = 0.1

> Cc1cc(CN(C)Cc2c(C(=O)N3CCCCCCC3)nc3ccc(Cl)cn23)n[nH]1
  Sfp inh = 12%	gsp antagonist = -3%	gsp agonist = 26%	Menin-MLL FL inh = 0.1	ClpP mod = ·	PINK1 expr mod = 2.6%	D2 agonist = -5.5

More entries follow.
structure | Sfp inh | gsp antagonist | gsp agonist | Menin-MLL FL inh | ClpP mod | PINK1 expr mod | D2 agonist
O=C(CC1Nc2cccc3cccc(c23)NC1=O)Nc1ccccc1 (centres undefined) | 18µM* | -23% | -32%[inhibitor] | 7.1 | -2.0% | 3.1% | 7.5
Cn1ncc(Br)c1NC(=O)CSc1ccc(Cl)cc1 | -9% | -9% | -35%[inhibitor] | 0.7 | -0.3% | 0.3% | -3.2
O=C(NC1CCCC1)C(c1ccncc1)N(C(=O)c1csnn1)c1cccc(F)c1 (centres undefined) | 5% | · | 16%[15.4 µM] | -2.4 | · | 0.9% | -2.8
O=C(COc1ccc(Cl)cc1Cl)Nn1c(=S)[nH]c2ncccc2c1=O | 23% | -30% | -11% | 3.8 | 1.6% | 0.0% | -2.7
COc1cc(/C=C2\SC(=Nc3ccc(O)cc3)NC2=O)cc(OC)c1OC | -7% | 9% | -7%[15.4 µM] | 5.2 | · | 9.6% | 1.1
Clc1ccc(-c2nc3ccccn3c2CN2CCOCC2)cc1 | -9% | -12% | 11% | -0.5 | -17% | 1.2% | -1.8
O=C(Nc1ccccc1Cl)c1cc(C2CCCCN2C(=O)C2CCCCC2)on1 (centres undefined) | · | · | · | · | -2.3% | 1.0% | -4.2
O=C(NCCCCCCNC(=O)c1ccccc1O)c1ccccc1O | 1% | 45µM* | -3%[15.4 µM] | -0.8 | 0.2% | 19% | -7.0
CC(=O)c1cccc(-c2ccnc3c2CC(C(=O)Nc2cccc(N(C)C)c2)O3)c1 (centres undefined) | · | · | · | · | 2.0% | 9.1% | -1.4
CSC(=NNC(=O)c1ccc(O)cc1)SC | -7% | -1% | 8% | 1.9 | 28µM* | -0.1% | -2.5
Cn1cccc1/C=N/N1CCN(c2ccccc2)CC1 | 28µM* | 15% | 10%[15.4 µM] | 0.7 | · | 0.6% | -0.1
CC1Sc2ccc(C(=O)N3CCCC(C(F)(F)F)C3)cc2NC1=O (centres undefined) | · | -5% | 21%[15.4 µM] | · | · | 0.1% | 0.4

(list continues)
structure | Sfp inh | gsp antagonist | gsp agonist | Menin-MLL FL inh | ClpP mod | PINK1 expr mod | D2 agonist
COc1ccc(N2CCN(C(=N)/C(C(C)=O)=C(\C)O)CC2)cc1 | 15% | 2% | 0% | 1.7 | -6.0% | -4.4% | 0.0
CSc1ccc(-c2nc(CN(C)C3CCOC3)c(C)o2)cc1 (centres undefined) | 17% | -4% | 7% | 0.2 | · | 0.8% | -1.8
Cc1cccnc1NC(=S)Nc1ccc(Br)cc1Cl | 20µM* | -5% | -25% | 1.4 | -8.3% | 4.5% | 0.2
CC(C)NC(=O)C1(c2ccccc2)CCOCC1 | 16% | 10% | -17% | 1.4 | -1.9% | 0.6% | -2.8
CC1=C(C(=O)N(C(C)C)C(C)C)CC(CC(=O)NC2CC2)C(=O)N1CCC1=CCCCC1 (centres undefined) | · | · | · | · | 3.3% | 1.4% | -3.6
C[C@H]1[C@H]2c3nc4ccccc4n3C[C@H]1ON2C1CCCCC1 | 18% | -3% | 0% | -1.7 | 0.5% | -0.7% | -3.9
CCN1C(=O)C(C)S/C1=N\S(=O)(=O)c1ccc(Cl)s1 (centres undefined) | -8% | 4% | 5% | -0.7 | -1.6% | 4.1% | -4.4
C/C(CCc1ccccc1)=N\NC(=S)NCCc1ccccc1 | 1% | -7% | -27% | -2.6 | · | -0.8% | 3.0
CCc1cc(C(=O)NC2CCCc3c2cnn3-c2cccc(C)c2C)n(C)n1 (centres undefined) | -1% | -2% | 1%[15.4 µM] | -1.2 | -1.2% | 4.1% | -5.5
CCOc1nc(NCCC2=CCCCC2)nc(N2CCOCC2)n1 | 10% | 11% | -28% | -1.4 | -1.0% | 2.6%[38.3 µM] | -3.3
CCCCN1C(=O)C(=O)N(CC(=O)c2ccc3c(c2)CCCC3)C1=O | · | 5% | 0% | · | -2.1% | 0.6% | -0.5
O=C(O)C1C2C=CC(C2)C1C(=O)OCC1CCCO1 (centres undefined) | 8% | -3% | 2% | -0.3 | -1.3% | 2.2%[38.3 µM] | -1.3

Other compounds.
structure | Sfp inh | gsp antagonist | gsp agonist | Menin-MLL FL inh | ClpP mod | PINK1 expr mod | D2 agonist
CC(C)C(=O)N1CCCC1(C)C(=O)NCc1ccccn1 (centres undefined) | · | · | · | · | 0.6% | -0.1% | -1.3
N/C(=N\OS(=O)(=O)c1cccc([N+](=O)[O-])c1)c1ccncc1 | -9% | 20% | -7%[15.4 µM] | 6.0 | 1.3% | 2.4% | 1.0
Cc1cc(C)n(C(=O)Cn2nc(C)c(Br)c2C)n1 | 9% | 1% | -9%[15.4 µM] | 3.8 | 0.0% | -1.1% | 1.7
Oc1cccc(C(O)CNCc2ccc(OCc3ccc(Cl)cc3Cl)cc2)c1 (centres undefined) | ? | 4% | 2% | -0.7 | · | -3.0% | -1.2
O=C(O)c1cccnc1SCc1ccc([N+](=O)[O-])cc1 | 16% | -13% | -2% | 3.7 | 1.5% | 1.7% | -4.2
CN(C(=O)COC(=O)CSc1cc(Cl)ccc1Cl)c1c(N)n(Cc2ccccc2)c(=O)[nH]c1=O | · | -11% | -38%[inhibitor] | · | 0.5% | 15% | -3.7
COc1ccc(OC)c(C2C3=C(N=C4SCC(=O)N42)c2ccccc2CC3)c1 (centres undefined) | ? | 1% | -16% | 8.4 | -3.6% | 3.8% | 2.5
Cc1cncc(NCc2cccc(Cl)c2)n1 | · | · | · | · | 5.6% | 0.2% | -1.8
Cc1ccccc1CSc1ccc(-c2ccc3c(c2)OCO3)nn1 | -16% | -3% | -26% | -1.7 | -1.8% | 6.7% | 3.2
Nc1nc(-c2ccccc2)cn1/N=C/c1ccccc1 | 10% | -1% | 2% | 1.2 | · | 6.3% | -2.2
C/C(=N\NC(=O)c1ccc2ccccc2c1)c1cccs1 | 7% | 4% | -48%[inhibitor] | · | -0.5% | 3.8% | -2.5
O=C(Nc1cc2c(cc1Cl)-c1ccc([N+](=O)[O-])cc1C2=NO)C(F)(F)F | · | -19% | 17% | · | 1.1% | -2.2% | 1.9

(listing goes on)
structure | Sfp inh | gsp antagonist | gsp agonist | Menin-MLL FL inh | ClpP mod | PINK1 expr mod | D2 agonist
CC1=C(C(N)=O)C(c2ccc(Cl)cc2)NC(=O)N1 (centres undefined) | 11% | 5% | -35% | 2.6 | 0.2% | 1.1% | -2.5
O=C(Oc1ccc(-c2cn3c(n2)SCC3)cc1)c1ccccc1 | -25% | -19% | -13% | -1.3 | 0.5% | 4.3% | 0.9
NCCCC[C@H]1CNC(=O)C(=O)N1CCC12CC3CC(CC(C3)C1)C2 | 19% | 5% | -1% | -1.2 | 0.1% | 0.6% | -2.6
COc1ccc(C(=O)CSc2nc3ccccc3n2CC(=O)NC(C)(C)C)cc1 | 5% | -3% | -16% | -2.1 | -0.2% | -0.7% | -3.7
O=C(CCNS(=O)(=O)c1ccc2nsnc2c1)N1CCN(c2ccncc2)CC1 | · | 7% | -1% | · | 0.2% | 3.9% | -1.5
CCn1cc(CNC(=O)C2CCC(=O)N(Cc3ccc(Cl)cc3)C2)cn1 (centres undefined) | 13% | 11% | 9% | · | -2.9% | 1.5% | -2.3
CNC(=S)NNC(=O)c1ccc(=O)n(Cc2ccc(Cl)cc2Cl)c1 | 14% | 6% | 21% | 1.8 | · | -1.4% | -4.0

From PubChem
